NPYLR7 agonist – agonists of mosquito NPYLR7 receptor, primary screen, cell-based, Aedes aegypti, calcium fluorescence, mosquito biting behavior | AID 1259423, 2018 | activation, % at 10 µM | Aedes aegypti neuropeptide Y-like receptor 7 (NPYLR7) | HEK293T NPYLR7/Galpha15, GCaMP6s calcium fluorescence | hit rate 0.15% among 270,000; in the data active = activation above about 40%;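 note: 0% = vehicle and 100% = reference agonist at the receptor; some compounds past the cut are filed as inactive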
NPYLR7 agonist max-min – recorded beside NPYLR7 agonist, whose call it bears; activation, %; measured here: Max-Min RFU normalised activation; some inactives read as strong as hits;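 span of the calcium signal over five minutes; 0% = vehicle and 100% = native peptide agonist; compound fluorescence can raise it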
Starred values were filed as active, the others as inactive; & = joins results of further samples. These rows are one share of the data; rates above refer to the full screens.

Molecule | NPYLR7 agonist | NPYLR7 agonist max-min
O=S(=O)(NC1CC1)c1cccc(NS(=O)(=O)c2ccc(Cl)cc2F)c1 | 34 | 33
CCN1CCN(Cc2csc(Nc3ccc(C)cc3)n2)CC1 | 7 | 4
CCOC(=O)C1=C(C)Nc2ncnn2C1c1ccc(F)cc1 (stereo unspecified) | 3 | -2
O=C(OCc1nnc(-c2ccco2)o1)C1CC(=O)N(C2CCCC2)C1 (stereo unspecified) | 7 | 4
CCOC(=O)CS(=O)(=O)C(c1ccccc1)S(=O)(=O)CC(=O)OCC | -7 | -12
Cc1cccc(-c2cc(N)n(-c3ccc(C(=O)NCCCc4ccccc4)cc3)n2)c1 | -9 | -15
Fc1cccc(-c2nc3cc(N4CCOCC4)c(N4CCOCC4)cc3[nH]2)c1 | -2 | -12
O=C(Nc1cccc2cccnc12)N(Cc1cccc(O)c1)C1CC1 | 10 | 5
Cc1c(-c2ccccc2F)[nH]c2ccc(CNS(=O)(=O)N3CCCC3)cc12 | 5 | 1
O=C(Nc1cccc(Cl)c1)N1CCN(c2nc(Cc3ccccc3)nc3c2cnn3-c2ccccc2)CC1 | 11 | 15
CN(CCNC(=O)N1CCCC(CO)C1)C(=O)OC(C)(C)C (stereo unspecified) | 2 | 1
COc1cccc(C2CCCCN2Cc2nc(-c3ccc(F)c(OC)c3)oc2C)c1 (stereo unspecified) | 14&-10 | 7&-13
C=C(Cl)CN(C)Cc1cc(C(=O)OC)c(C)o1 | 7 | 7
Cc1cc(C)c(S(=O)(=O)N2CCN(c3ccc(Nc4ccncc4)nn3)CC2)cc1C | 7 | 2
N#Cc1ccc(NC(=O)COC(=O)Cc2ccsc2)cc1 | -1 | -3
OC1(c2cccc(C(F)(F)F)c2)CCN(Cc2c(F)cccc2F)CC1 | 23 | 20
CCN(CCNc1ccc([N+](=O)[O-])cc1Cl)C(=O)c1ccc(C)cc1 | -7 | -9
Cc1cc(C(F)(F)F)nc(CNC(=O)c2cn(-c3ccccc3)nn2)n1 | 0 | -11
O=C(NCc1ccccc1)C1CC12CCN(C(=O)/C=C/c1cccs1)CC2 (stereo unspecified) | -6 | -9
COCCCN1COc2ccc3c(=O)c(Oc4ccc(OC)cc4)coc3c2C1 | -9 | -13
COc1ccc(-n2nc(-c3ccccc3)c3c2N(CC(=O)N2CCOCC2)C(=O)CSC3c2ccccc2C)cc1 (stereo unspecified) | 5 | 16
CC(=O)Oc1ccccc1Cn1c(C)c(C(=O)Nc2ccc(C)cc2)sc1=O | 10 | 6
CC(NCc1ccc(OCC(N)=O)cc1)c1ccccn1 (stereo unspecified) | 12 | 11
CN1CCC(NCc2cc3c(cc2Br)OCO3)CC1 | 11 | 11
CCOc1ccc(C(=O)NCCc2cc3c(OC)ccc(OC)c3[nH]c2=O)cc1 | 0 | 41
O=C(CSc1ccccc1)NC(Cc1ccccc1)c1nnc(SCc2ccc(F)cc2)n1-c1ccc([N+](=O)[O-])cc1 (stereo unspecified) | 15 | 19
C=CCSc1nnc2c(n1)OC(/C=C/c1ccco1)Nc1ccccc1-2 (stereo unspecified) | 5 | 1
Cc1ccccc1C1c2ccsc2CCN1C(=O)CN(CC1CCCO1)C(=O)C12CC3CC(CC(C3)C1)C2 (stereo unspecified) | 10 | 8
Cc1ccc(C2Nc3ccccc3N=C3CC(C)(C)CC(=O)C32)c(O)c1 (stereo unspecified) | -3 | -6
Cc1nc(CN(C)C(=O)Cc2ccc3c(c2)CCCC3)nc2ccccc12 | 5 | 2
COc1ccc(NC(=O)CS(=O)Cc2cccc(C(N)=O)c2)cc1 (stereo unspecified) | -4 | -4
Cc1nc2scc(C)n2c(=O)c1NC(=O)c1ccc(C(C)(C)C)cc1 | 11 | 0
Cc1ccc(C)c(CSc2nc(=O)[nH]c3c2CCCC3)c1 | 0 | -3
CN(C1CCCCC1)S(=O)(=O)c1ccc(NC(=O)CSC2=NCCS2)cc1 | -1 | 1
COC(=O)c1cccc(CN2CCN(c3cc(C#N)ccn3)CC2)c1 | 0 | -2
Cc1ccccc1CC1(CO)CCCN(C(=O)c2cccc(Cl)c2)C1 (stereo unspecified) | 0 | 7
O=C1CC(N2CCN(c3ccccn3)CC2)C(=O)N1c1ccc(Br)cc1 (stereo unspecified) | -8 | -14
Cc1cccc(-n2nc(C)cc2NC(=O)CC2C=CCC2)c1 (stereo unspecified) | 3 | 2
Cc1cccc(-c2noc(N3CCCC3)c2CN(CC(O)COCc2ccco2)C(C)C)c1 (stereo unspecified) | 8 | 11
Cc1nc(CCC(=O)OC2CCC2)oc1-c1ccc(Br)cc1 | 10 | 8

Next part (2 carried over from the part before).
Molecule | NPYLR7 agonist | NPYLR7 agonist max-min
Cc1cccc(-c2noc(N3CCCC3)c2CN(CC(O)COCc2ccco2)C(C)C)c1 (stereo unspecified) | 8 | 11
Cc1nc(CCC(=O)OC2CCC2)oc1-c1ccc(Br)cc1 | 10 | 8
O=c1[nH]c(CN(Cc2ccco2)CC(O)Cc2ccccc2)nc2scc(-c3ccc(Cl)cc3)c12 (stereo unspecified) | -6 | -1
CC1CN(C(=O)C(C)N2CCCN(c3nccs3)CC2)CC(C)O1 (stereo unspecified) | 2&8 | -2&7
COc1cc(OC)c(OC)cc1CN1CCCn2cccc2C1c1ccc(F)cc1 (stereo unspecified) | -12 | -8
Cc1occc1-c1nnc(SCC(=O)c2ccc(Br)s2)n1C | 7 | 2
O=C(C1CCNCC1)N(Cc1ccccn1)CC1CCCO1 (stereo unspecified) | 0 | -3
CC(C)Oc1ccc2c(=O)c(-c3ccccc3)coc2c1 | -9 | -14
CC(C)CCOC(C)C(=O)N(C)C1CCS(=O)(=O)CC1 (stereo unspecified) | 8 | 4
CCc1nc(CN(C)Cc2ccc3nsnc3c2)c(C)[nH]1 | 3 | 3
CCCCC(C)=NNC(=O)c1cc(C)oc1C | -6 | -6
CCOc1ccc(-c2ccc(=O)n(CCNS(=O)(=O)c3cc(C)cc(C)c3)n2)cc1 | -2 | -2

Part of the list above in order of SMILES length, descending.
Molecule | NPYLR7 agonist | NPYLR7 agonist max-min
O=c1[nH]c(CN(Cc2ccco2)CC(O)Cc2ccccc2)nc2scc(-c3ccc(Cl)cc3)c12 (stereo unspecified) | -6 | -1
COc1cc(OC)c(OC)cc1CN1CCCn2cccc2C1c1ccc(F)cc1 (stereo unspecified) | -12 | -8
CC1CN(C(=O)C(C)N2CCCN(c3nccs3)CC2)CC(C)O1 (stereo unspecified) | 2&8 | -2&7
CC(C)CCOC(C)C(=O)N(C)C1CCS(=O)(=O)CC1 (stereo unspecified) | 8 | 4
CCc1nc(CN(C)Cc2ccc3nsnc3c2)c(C)[nH]1 | 3 | 3
CC(C)Oc1ccc2c(=O)c(-c3ccccc3)coc2c1 | -9 | -14
CCCCC(C)=NNC(=O)c1cc(C)oc1C | -6 | -6

Next structures follow.
Molecule | NPYLR7 agonist | NPYLR7 agonist max-min
CC1=C(C(=O)Nc2ccccc2)C(c2ccco2)NC(=O)N1 (stereo unspecified) | 6 | 1
COc1ccc(C(=O)N2CC(=O)N(CC(C)C)CC(O)C2)cc1OC (stereo unspecified) | 31 | 35
CC(=O)Nc1cccc(N=C2NN=C(C34CC5CC(CC(C5)C3)C4)CS2)c1 | 7 | 4
CCCC(CCC)C(=O)Nn1cnc2c(cnn2C(C)(C)C)c1=O | 7 | 3
Cc1nc(COc2ccccc2C(=O)Nc2ccc(Cl)cc2C)cs1 | -4 | -3
O=C1OC23CCC(CC2)N(C(=O)N2CCOCC2)C3CN1Cc1ccccc1 (stereo unspecified) | 25 | 28
CCOC(=O)c1cc(C#N)c(SCc2ccc(C(=O)N3C4CCC3CC(Oc3cccc(C(F)(F)F)c3)C4)cc2)nc1C (stereo unspecified) | 0 | -5
Cc1ccc2c(c1)CCCN2C(C(N)=O)c1ccc(F)cc1 (stereo unspecified) | 10&-3 | 5&-3
COc1cccc(C(=O)Nn2cnc3c(cnn3-c3ccccc3)c2=O)c1OC | 3 | -1
Cc1ccc(S(=O)(=O)N(C)C)cc1N=CC(Br)=Cc1ccccc1 | 5 | 2
Fc1cccc(C2CCCN2CCc2ccncc2)c1 (stereo unspecified) | 6 | 3
CC(C)C1CN(C(=O)CCn2cnnc2)CCC(=O)N1Cc1ccc(F)cc1 (stereo unspecified) | 7 | -1
OC(COc1ccccc1)CN(Cc1ccc(F)cc1)CC1CC(c2ccc(Cl)c(Cl)c2)=NO1 (stereo unspecified) | -2 | 3
Cc1ccccc1NC(=O)Cc1csc(-n2cccc2)n1 | -3 | -3
Cc1cccc(C(=O)N2CCN(C(c3ccc(F)cc3)c3ccc(F)cc3)CC2)c1 | 3 | -1
NC(=O)c1nc(CCc2ccccc2)nc2c1[nH]c(=O)n2-c1ccccc1F | -3 | -8
C=CCn1c(SCc2ccc(C(=O)N3CCN(c4ccccc4F)CC3)cc2)nnc1-c1ccc(C)cc1 | 20 | 27
CCc1c(C)nc(-n2nc(C)cc2C)n(CC(=O)Nc2ccc(C(F)(F)F)cc2)c1=O | 2 | -1
O=C(NNS(=O)(=O)c1cccc(Br)c1)c1ccc2c(c1)OCCO2 | 5 | 9
CCCN(CCC)CCc1cccc2c1CC(=O)N2 | 1&2 | -9&2
Cc1nnc(SC(C(=O)Nc2ccc(Cl)c([N+](=O)[O-])c2)c2ccccc2)s1 (stereo unspecified) | -4 | -6
c1coc(-c2ncc(-c3nccn3CCSc3cn[nH]n3)cn2)c1 | -5 | -8
COc1cccc(C(CN2CCN(C(=O)NC3C[C@H]3c3ccccc3)CC2)OCc2ccc(C#N)cc2)c1 (stereo partly specified) | -1 | 11
CNc1ccc(-c2cccc(NS(C)(=O)=O)c2)cn1 | 3 | 1
CN(C)C1CCCN(Cc2noc(-c3ccccc3)n2)CC1 (stereo unspecified) | 6 | 6
O=C(Cn1nc2c(c1NC(=O)COc1ccc(Cl)cc1)CSC2)NCc1ccc(F)cc1 | -2 | -1
Cc1nc(-n2nc(-c3ccco3)cc2NC(=O)CSCc2ccccc2)[nH]c(=O)c1C | 1 | -1
CCC(C(=O)N1CCC2(CC1)C(=O)N(CC(=O)NCc1ccco1)CN2c1ccccc1)c1ccccc1 (stereo unspecified) | 2 | 14
CCn1cnnc1CNC(=O)C1CC(=O)N(C)C1 (stereo unspecified) | -1 | 0
COc1cccc(C2CCCCN2S(=O)(=O)N2CCC(OC)CC2)c1 (stereo unspecified) | 2 | 1
O=C(Nc1nnc(C2CC2)s1)C1CC1c1ccccc1C(F)(F)F (stereo unspecified) | -4 | -5
N#CC1(C(=O)Nc2nc(-c3ccc(Cl)s3)cs2)CCCC1 | 2 | -2
O=c1[nH]c(Cc2ccccc2F)nc2sc3c(c12)CCS(=O)(=O)C3 | -2 | -7
Cc1cc(C(F)(F)F)nc(CCn2cc(-c3ccnc4ccccc34)nn2)n1 | -2 | -5
CCc1cnc2c(c1SCC(=O)Nc1cc(C)ccc1C)c(=O)n(C)c(=O)n2C | 8 | 15
Cc1ccc(NC(=O)C(C)Sc2ncnc3sc4c(c23)CCC4)cc1 (stereo unspecified) | -4 | -7
Cc1ccc(NC(=O)CCC2Cc3ccccc3NC2=O)cc1 (stereo unspecified) | 0 | -1
CC1CCCCN1CCCNC(=O)C(C1CCCC1)N1CCN(C(=O)c2ccco2)CC1 (stereo unspecified) | 0 | 3
CNc1cccc(-c2ccc(S(C)(=O)=O)cc2)n1 | 3 | 0
CN(Cc1cc(-c2ccccn2)no1)C(=O)C1(c2ccccc2F)CC1 | 12 | 9
COc1ccc(S(=O)(=O)c2c[nH]c3ccc(F)cc3c2=O)cc1 | 4 | 0
C#CCNC(=O)[C@H]1O[C@H](CCN(CCOC)CCOC)CC[C@@H]1O | -5 | -12
Cc1nc2n(n1)C(=O)C(C(c1cccs1)N1CC(C)CC(C)C1)S2 (stereo unspecified) | 8 | 3
Cn1c(SCC(=O)N2CCOCC2)nnc1-c1ccc(C(C)(C)C)cc1 | 9 | 8
CCn1c(C)cc(C(=O)N2C[C@@H](N)C[C@H]2C(=O)NC(C)C)c1C | -1 | -7
CN(C(=O)c1c[nH]c(=O)c(Cl)c1)c1cccc(OC(F)(F)F)c1 | 7&4 | 4&2
O=C(NCc1ccc(-c2ccccn2)s1)c1cccc2ccnn12 | 2 | -3
COc1ccc(OC)c(CN(Cc2ccc3c(c2)OCO3)Cc2nc(C(=O)N3CCOCC3)co2)c1 | 14 | 16
O=[N+]([O-])c1ccc(C(c2ccccc2)c2ccccc2)cc1 | 11 | 12
O=C(c1ccc(CSc2nc(Cl)cc(N3CCN(c4cccc(Cl)c4)CC3)n2)cc1)N1CCC2(CC1)OCCO2 | 0 | 2

Next part:
Molecule | NPYLR7 agonist | NPYLR7 agonist max-min
CCOc1cc(/C=N\NC(=O)Cn2cnc([N+](=O)[O-])n2)ccc1O | -10 | -16
COc1cc(CN2CCCn3cccc3C2c2ccccc2[N+](=O)[O-])cc(OC)c1 (stereo unspecified) | -3 | 8
CCN1CCN(Cc2cn[nH]c2-c2ccc3cc(OC)ccc3c2)[C@@H](C)C1=O | 1 | 3
CC(C)(C)c1ccc(-n2c(=O)[nH]c3c(C(N)=O)nc(-c4cccc(F)c4)nc32)cc1 | -3 | -5
COc1ccc(CNC2CCCc3nc(N(C)C)ncc32)c(OC)c1 (stereo unspecified) | 6 | 4
CC(Cc1ccsc1)NS(=O)(=O)CC1CCOCC1 (stereo unspecified) | 13 | 8
CCOc1cccc(-c2ccc(C(=O)NC)s2)c1 | -5 | -7
C=c1occc1=C1NN=C(SCC(=O)N(CC(C)C)CC(C)C)O1 | -4 | -7
O=C(O)c1ccccc1/C=C1\SC(=S)N(c2cccc(Cl)c2)C1=O | 0 | -1
CCN(Cc1ccncc1)C(=O)C1CCC(=O)N(Cc2ccccn2)C1 (stereo unspecified) | 1 | -1
COc1nc2ccccc2cc1CN1CCC(OCc2cccnc2)CC1 | -5 | -8
CC1CCc2c(sc3ncn(CC(=O)N(CCC#N)Cc4ccco4)c(=O)c23)C1 (stereo unspecified) | 3 | 1
C#CCSc1nc(N)c2c3c(sc2n1)CCCC3 | 0 | 2

From PubChem BioAssay
